High-throughput results (PubChem)
VACV Venus inh = qHTS for Stage-Specific Inhibitors of Vaccinia Orthopoxvirus: Venus Reporter Primary qHTS | actives 0.46% (n = 330,000) | Vaccinia virus Venus reporter expression, fluorescence | Potency, µM (doses to about 36.5 µM), for inactives: top-dose activity change, negative = inhibition, hits mostly inhibitors; active means well fitted inhibition curve with a large enough effect; inconclusive means small, poorly fitted or top-dose-only effect; inactive means no such curve, though single readings can be large or run the other way; tested in A549 cells; further: nearly all actives have a fitted effect of over 30% in size; inactives centre near -10
VACV mCherry inh = qHTS for Stage-Specific Inhibitors of Vaccinia Orthopoxvirus: mCherry Reporter Primary qHTS; Vaccinia virus mCherry reporter infection, fluorescence; about a quarter of the inactives have no number; Potency, µM (series often up to 36.5 µM), inactives show top-dose activity change, negative = inhibition, actives largely listed as inhibitors; actives 0.63% (n = 310,000); AID 720579, 2013; active = well fitted inhibition curve with a large enough effect; inconclusive = small, poorly fitted or top-dose-only effect; inactive = no such curve, though single readings can be large or run the other way; tested in A549 cells; further: nearly all actives have a fitted effect of over 35% in size; inactives centre near -10
The depositor's hits bear a star; i = inactive; ? = inconclusive; . = no result given; & = joins results of further samples; [ ] = dose if it differs, or a comment. On the % scale 0 is the no-effect control and ±100 the full control effect; potency means the concentration at half of the fitted maximal effect.

The opening two records, ahead of the listing:
SMILES	VACV Venus inh	VACV mCherry inh
Cc1ccc(N2C(=O)C(Cl)=C(Nc3c(C)n(C)n(-c4ccccc4)c3=O)C2=O)cc1	0%	-12%
Brc1ccc([C@H]2CN3CCSC3=N2)cc1	-8%	-18%

Main list, from the start:
SMILES	VACV Venus inh	VACV mCherry inh
Cc1ccc(N2C(=O)C(Cl)=C(Nc3c(C)n(C)n(-c4ccccc4)c3=O)C2=O)cc1	0%	-12%
Brc1ccc([C@H]2CN3CCSC3=N2)cc1	-8%	-18%
O=c1cc(CN2CCN(c3ccccc3)CC2)c2c(ccc3ccccc32)o1	-19%	.
Cc1ccc(Oc2nnc(-c3cccs3)c3ccccc23)cc1	-10%	i
COc1ccccc1/C=C/C(=O)OCC(=O)N1CCCCC1	-5%	i
O=C(COC(=O)CC1CC2CCC1C2)NC(=O)NCc1ccco1 (stereo not drawn)	-7%	-14%
COc1cccc(CNC(=O)CCc2c(C)nn(-c3ccc(N4CCCC4)nn3)c2C)c1	-10%	0%
O=c1cc(O)c2ccccc2n1Cc1ccccc1F	5%	8%
CCCn1c(-c2ccncc2)n[nH]c1=S	-10%	i
O=C(O)c1ccccc1C(=O)c1ccc2c(c1)N(Cc1cccc(F)c1)C(=O)CO2	-13%	-23%
COc1cc(/C=C/c2ccc3ccccc3n2)cc(OC)c1OC	-26%	?
Brc1cc(Br)c2ncnc(N3CCCCC3)c2c1	?	?
COC(=O)[C@@]1(Cc2ccccc2)[C@H]2C(=O)N(Cc3ccccc3)C(=O)[C@H]2[C@H]2CN=C(SCC(=O)c3ccccc3)N21	-21%	?
COc1ccccc1NC(=O)C1=C(C)NC(=O)NC1c1cc(C)cs1 (stereo not drawn)	-20%	-3%
C[C@H]1CN([C@@H](C)CO)C(=O)c2cc(Br)cnc2O[C@H]1CN(C)C(=O)C1CC1	-10%	i
COc1ccc(CCNC(=O)C(=O)NCC2CCCO2)cc1OC (stereo not drawn)	-11%	-5%
C=CCOC(=O)N1CCC2CC1c1c(-c3ccc(C(F)(F)F)cc3)cccc12 (stereo not drawn)	4%	i
Cc1ccc(C)c(NC(=O)CSc2nc(N)c(NC(=O)c3cccs3)c(=O)[nH]2)c1	4%	-9%
COCCn1c(Cc2ccccc2)nnc1SCC(=O)NC1CC1	-3%	i
O=C(CCN1CCCCC1=O)NC1CCCN(Cc2ccc(Cl)cc2)C1 (stereo not drawn)	-16%	i
CCn1c(=O)oc2cc(NC(=O)CCl)ccc21	?	?
CN1CCN(S(=O)(=O)c2cccc(C(=O)Nc3ccc(Br)cc3Br)c2)CC1	?	?
O=C(Cc1ccc(Br)cc1)OCC(=O)N1CCc2ccccc2C1	-11%	-25%
CC(C)(C)c1ccc(Cn2nc(CC(=O)O)c3ccccc3c2=O)cc1	-7%	-1%

6 entries from above in another layout:
Order of results: VACV Venus inh, VACV mCherry inh
O=C(CCN1CCCCC1=O)NC1CCCN(Cc2ccc(Cl)cc2)C1 (stereo not drawn)
  -16%, i
COc1ccc(CCNC(=O)C(=O)NCC2CCCO2)cc1OC (stereo not drawn)
  -11%, -5%
O=C(Cc1ccc(Br)cc1)OCC(=O)N1CCc2ccccc2C1
  -11%, -25%
COc1ccccc1NC(=O)C1=C(C)NC(=O)NC1c1cc(C)cs1 (stereo not drawn)
  -20%, -3%
CN1CCN(S(=O)(=O)c2cccc(C(=O)Nc3ccc(Br)cc3Br)c2)CC1
  ?, ?
CC(C)(C)c1ccc(Cn2nc(CC(=O)O)c3ccccc3c2=O)cc1
  -7%, -1%

(listing goes on)
SMILES	VACV Venus inh	VACV mCherry inh
C/C(CC(=O)Nc1ccc([N+](=O)[O-])cc1)=N/NC(=O)C1C2CCCCC21 (stereo not drawn)	-16%	i
COc1cc(/C=C/C(=O)O)ccc1OS(=O)(=O)c1cc(C)ccc1C	3%	-25%
COc1ccc(OCC(=O)Nc2cc(S(=O)(=O)N3CCCCC3)ccc2OC)cc1	-5%	-16%
CCOC(=O)C1CCCN(C(=O)Cc2ccc(C)cc2)C1 (stereo not drawn)	-8%	-10%
O=C(CC(c1ccccc1)c1ccccc1)NCCOCc1ccccc1	-10%	-10%
COc1ccc(CNC(=O)COc2cc3c(c4oc(=O)cc(C)c24)CCC(C)(C)O3)cc1OC	-9%	-8%
CCC1CSC(=Nc2ccc(C)cc2)N1C(=O)CN1C(=O)NC2(CCCC2)C1=O (stereo not drawn)	?	?
Cc1ccc(C(=O)NC2(C(F)(F)F)N=C3SCCN3C2=O)cc1 (stereo not drawn)	-16%	-26%
CC(=O)NC1C(=O)N=C(SCc2ccccc2)NC1=O (stereo not drawn)	8%	-6%
O=c1c2ccccc2nc(-c2ccco2)n1-c1cccnc1	-6%	.
COCCCNC(=O)/C=C/[C@H]1O[C@@H](n2cnc3c(NC(=O)c4ccccc4)ncnc32)[C@H](O)[C@@H]1O	10%	21%
COc1ccccc1-c1nc(C(F)(F)F)c(OC)o1	-6%	-16%
CCOC(=O)[C@]12CCCC=C1N(Cc1cccc3ccccc13)C(=O)[C@H](CC(=O)NCCc1ccccc1OC)C2	-13%	2%
O=[N+]([O-])c1cc(Cl)ccc1Nc1nc(Nc2ccc(Cl)cc2[N+](=O)[O-])nc(N2CCOCC2)n1	-13%	10%
Cc1nonc1NC(=O)c1ccccc1Br	1%	-14%
CC(C)(C)c1ccc(C(=O)NC(=O)COC(=O)c2ccco2)cc1	-3%	i
Cc1ccc(OCC(=O)Nc2sc3c(c2C#N)CCC3)cc1C	-9%	-9%
CCOC1=C2[C@@H](CN(S(=O)(=O)c3ccc(C)cc3)[C@H]2c2ccccc2F)[C@H]2C(=O)N(C3CCCCC3)C(=O)[C@H]2C1	-20%	i
CC1=NN(C(=O)c2ccc(Cn3cc([N+](=O)[O-])cn3)cc2)C(O)(C(F)(F)F)C1 (stereo not drawn)	-4%	-17%
Cn1c(Cl)cnc1C1CC(=O)c2cc(Cl)ccc2O1 (stereo not drawn)	-14%	-2%
COc1ccccc1C(=O)Nc1ccc(C2=NNC(=O)CC2C)cc1 (stereo not drawn)	-9%	i
COc1cc2cc(CN(Cc3cccnc3)C(=O)NCc3ccccc3)c(=O)[nH]c2cc1OC	-2%	.
COc1cccc(NC(=O)c2sc3ncn(CC(=O)N4CCN(c5ccccn5)CC4)c(=O)c3c2C)c1	-7%[7.34 µM]	-4%[7.34 µM]
COc1ccc(NC(=S)N2CCN(c3ccccc3)CC2)c(OC)c1	-13%	-21%

Of the compounds above, these have a nitro group on carbon.
SMILES	VACV Venus inh	VACV mCherry inh
C/C(CC(=O)Nc1ccc([N+](=O)[O-])cc1)=N/NC(=O)C1C2CCCCC21 (stereo not drawn)	-16%	i
O=[N+]([O-])c1cc(Cl)ccc1Nc1nc(Nc2ccc(Cl)cc2[N+](=O)[O-])nc(N2CCOCC2)n1	-13%	10%
CC1=NN(C(=O)c2ccc(Cn3cc([N+](=O)[O-])cn3)cc2)C(O)(C(F)(F)F)C1 (stereo not drawn)	-4%	-17%

Later entries
SMILES	VACV Venus inh	VACV mCherry inh
O=C1OC(/C=C/c2ccccc2)=NC/1=C/c1ccco1	-9%	-13%
Cc1ccc(N(C(=O)c2csnn2)C(C(=O)NC2CCCCC2)c2ccncc2)c(C)c1 (stereo not drawn)	-13%	-4%
CC1CCCCC1NC(=O)COC(=O)COc1ccccc1Cl (stereo not drawn)	2%	-11%
COc1ccc(/C=C/C(=O)OCC(=O)NCc2ccco2)cc1OC	-23%	?
COc1ccc(N2CCN(C(CNC(=O)COc3ccccc3)c3ccco3)CC2)cc1 (stereo not drawn)	-15%	i
O=C(c1ccco1)N1CCN(S(=O)(=O)Cc2ccc(Cl)cc2)CC1	-16%	-3%
O=C(CCCn1cncn1)N1CCCC(Nc2ccc(F)cc2)C1 (stereo not drawn)	-16%	i
O=C(Oc1ccc(Br)cc1)C1CCN(C2=NS(=O)(=O)c3ccccc32)CC1	-5%	-14%
CC(C)=CCC[C@H](C)C[C@@H]1CC2=C(C(=O)OC(C)(C)O2)[C@H](c2ccc(Cl)cc2)O1	-5%	8%
CCC(C)[C@H]1COCCS(=O)(=O)N1Cc1ccc(Cl)cc1Cl (stereo partly drawn)	-22%&-15%	-6%&-16%
COc1cc2c(cc1OC)CN(C(=S)Nc1ccc(C)cc1C)CC2	-3%	-17%
O=C(/C=C/c1cccc(Br)c1)NC1CCN(Cc2ccccc2)CC1	-24%	-1%

Single records (already shown):
`C=CCOC(=O)N1CCC2CC1c1c(-c3ccc(C(F)(F)F)cc3)cccc12` (stereo not drawn) is entered as VACV Venus inh: 4%; VACV mCherry inh: i
`COc1ccc(CNC(=O)COc2cc3c(c4oc(=O)cc(C)c24)CCC(C)(C)O3)cc1OC` is entered as VACV Venus inh: -9%; VACV mCherry inh: -8%

Remaining list, next part:
SMILES	VACV Venus inh	VACV mCherry inh
COc1ccc(CCNC(=O)c2ccc(OCc3c(C)noc3C)c(OC)c2)cc1	-3%	-11%
N#CCCn1nnc2ccccc21	-12%	i
COc1cc2c(cc1NC(=O)CSc1nc3ccccc3[nH]1)oc1ccccc12	-21%	?
Cc1nc2ccc(NC(=O)c3ccc4ccccc4n3)cc2s1	-4%	-2%
O=C(N/C(=C/c1cccc(Br)c1)c1nc(=S)[nH][nH]1)c1ccccc1	-4%	i
CC(=O)c1c(C)[nH]c(C(=O)OCc2ccc([N+](=O)[O-])cc2)c1C	-28%	?
Cc1ccc(OCC(=O)NNC(=O)c2cc(C)[nH]n2)cc1	-17%	i
CC(=O)c1ccc(N2CCN(CC(=O)Nc3ccccc3N3CCOCC3)CC2)cc1	-9%	-10%
Cc1cc2ccccc2n1CCNC(=O)c1cc(C(F)(F)F)cc(C(F)(F)F)c1	-19%	-15%
O=C(O)CN1C(=O)/C(=C\c2cc([N+](=O)[O-])ccc2OCc2ccccc2Cl)SC1=S	4%	-1%
Cc1nn(CCC(=O)N2CCN(S(=O)(=O)c3ccccc3)CC2)c(C)c1C	5%	-2%
COc1ccccc1NS(=O)(=O)c1cc(N/C(=N\S(=O)(=O)c2ccccc2)c2ccc(F)cc2)ccc1Cl	-21%	-4%
CC(=O)C[C@H](O)CC(=O)[C@H]1OC(=O)[C@@H](C)CCCCc2ccccc21	-15%	i
CCO[C@H]1OC(C(=O)N2CCN(Cc3ccc4c(c3)OCO4)CC2)=C[C@@H](c2ccc3c(c2)OCO3)[C@@H]1CCCO	-21%	-11%
COc1ccc2cc(CNc3ccccc3)c(=O)n(CC(=O)Nc3ccc(C)cc3C)c2c1	-17%[7.34 µM]	-16%[7.34 µM]
Cc1c(/C=C2\SC(=Nc3cccc(C(=O)O)c3)NC2=O)c2ccccc2n1C	-1%	0%
O=C(COC(=O)CSc1cccc2cccc(Cl)c12)Nc1ncc(C(F)(F)F)cc1Cl	5%	-3%
Nc1ncnc2c1nc(Br)n2C1CC(O)C(CO)O1 (stereo not drawn)	-6%&0%	29%&13%
CCCc1nnc(NC(=O)c2oc3ccccc3c2COCC)s1	-6%	-12%
Cn1ncc(Br)c1C(=O)Nc1cccc(C(F)(F)F)c1	-13%	i
CC(=O)c1ccc(S(=O)(=O)N(C)CC(=O)Nc2cc(C)on2)cc1	-4%	-11%
COc1ccc(-c2oc(=O)n(C)c2-c2ccc(OC)cc2)cc1	-16%	i
COc1ccc(C(=O)NC(=S)NNC(=O)[C@H]2C[C@@H]2c2ccccc2)cc1OC	-20%	-32%
Cc1ccc(Nc2c(-c3ccccn3)nc3ccc(Br)cn23)cc1	-19%	-8%
CC1Cc2ccccc2N1C(=O)CSc1nnc2c(n1)[nH]c1ccccc12 (stereo not drawn)	-5%	.
Cc1ccc(C(CNS(=O)(=O)c2ccc(Cl)cc2)N2CCN(C)CC2)cc1 (stereo not drawn)	?	-11%
Cc1ccccc1OCCSc1nc2ccc(NC(=O)c3ccccc3)cc2s1	-23%	-7%
Cc1cccc(CSCCNC(=O)c2ccc(CN3CCOCC3)cc2)c1	-11%	-10%
